From PubChem BioAssay
TRPML1 inh: inhibitors of human TRPML1 channel; Q9GZU1; TRPML1-inducible cells, Ca2+ dye fluorescence, FDSS; stronger effect = lower value; inhibition of EC80 agonist-evoked calcium signal; activity change, negative = inhibition, % (no concentration beside the values); 0.02% of 390,000 active; AID 624415; in the data active means activity change below about -50%; inconclusive means about -30% to -50%; inactive means above about -30%;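 note: stimulus is agonist 54-4 at its EC80 concentration; % is set by controls: 0 for no effect and ±100 for the full control effect; compound concentration not given in the record; the text of the record puts the active cut at -80%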
Target sequence (Q9GZU1 whole entry, looked up): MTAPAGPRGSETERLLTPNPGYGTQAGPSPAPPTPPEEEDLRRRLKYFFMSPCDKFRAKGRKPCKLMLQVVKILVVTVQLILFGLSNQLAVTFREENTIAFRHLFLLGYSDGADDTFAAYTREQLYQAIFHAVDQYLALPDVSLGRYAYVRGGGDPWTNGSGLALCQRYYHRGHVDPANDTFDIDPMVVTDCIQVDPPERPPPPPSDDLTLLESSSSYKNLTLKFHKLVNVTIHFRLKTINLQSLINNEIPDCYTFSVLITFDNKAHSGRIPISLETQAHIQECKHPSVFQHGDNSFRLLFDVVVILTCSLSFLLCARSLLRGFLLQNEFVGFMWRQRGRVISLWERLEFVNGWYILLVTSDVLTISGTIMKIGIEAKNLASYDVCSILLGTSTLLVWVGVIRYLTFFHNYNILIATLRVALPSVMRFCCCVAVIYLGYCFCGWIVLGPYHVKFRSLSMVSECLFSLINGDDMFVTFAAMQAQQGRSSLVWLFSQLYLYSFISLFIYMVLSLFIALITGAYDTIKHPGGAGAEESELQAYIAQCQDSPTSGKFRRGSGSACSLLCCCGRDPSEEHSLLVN
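Calcium fluorescence in TRPML1-DL cells induced overnight with Tet: a 110 s read after compound pin addition, then a 110 s antagonist read after challenge with 54-4 at 4 uM final (EC80).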
gsp ag: gsp mutant agonism | gsp mutant cells, cAMP HTRF, 30 min; control for the full effect not named in the record | Potency, µM (titrated, usually from 76.9 µM), for inactives: at the top dose activation (cAMP increase), most hits filed as activators | 0.13% of 340,000 active; active = well fitted activation curve with a large enough effect; inconclusive = small, poorly fitted or top-dose-only effect, or another doubt; inactive = no such curve, though single readings can be large or run the other way; cell line not stated here;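 note: phosphodiesterase inhibitor Ro 20-1724 added with compounds to block cAMP breakdown; potency is the fitted concentration of half-maximal effect; nearly all actives have a fitted effect of over 60% in size; about a fifth of the inactives were tested at one dose only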
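Cells in DMEM/10% FBS with G418 were pretreated with compounds in DMSO plus […] (300 uM stock) for 30 min at 37C. cAMP was measured by HTRF (cAMP-d2 plus anti-cAMP antibody-K) after 30 min at room temperature.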
TRPML1 ag: agonists of human TRPML1 channel. TRPML1-expressing cells, Ca2+ dye fluorescence, FDSS; host cell line not named in the record; reference of the full effect not given here. activation, % (test concentration not listed). 0.12% of 410,000 active. AID 624414; in the data active = activation above about 50%; inconclusive = about 30% to 50%; inactive = below about 30%; note: 0% is about no effect; the text of the record puts the active cut at 80%
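Calcium fluorescence on an FDSS kinetic reader gave the read-out. Tet-induced TRPML1-DL cells were plated overnight, dye-loaded (Ca8 with quencher, 45-90 min, room temperature, dark), then read 110 s after compound addition, and again 110 s after 4uM final 54-4 (EC80).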
ClpP mod: qHTS Assay for Activators of ClpP. ATP-dependent Clp protease proteolytic subunit (Bacillus subtilis (strain 168)), P80244. purified B. subtilis ClpP, FRET peptide cleavage, 20 min. Potency, µM (series often up to 57.5 µM), for inactives: top-dose activity change, negative = active. 1.9% of 340,000 active. AID 651965, 2013; active = well fitted falling curve with a large enough effect; inconclusive = small, poorly fitted or top-dose-only effect; inactive = no such curve, though single readings can be large or run the other way; note: potency is the fitted concentration of half-maximal effect; the source files actives as falling curves though it sought activators and does not explain the sign; nearly all actives have a fitted effect of over 65% in size; many hits overshoot -100%
Target sequence (P80244 whole entry, looked up): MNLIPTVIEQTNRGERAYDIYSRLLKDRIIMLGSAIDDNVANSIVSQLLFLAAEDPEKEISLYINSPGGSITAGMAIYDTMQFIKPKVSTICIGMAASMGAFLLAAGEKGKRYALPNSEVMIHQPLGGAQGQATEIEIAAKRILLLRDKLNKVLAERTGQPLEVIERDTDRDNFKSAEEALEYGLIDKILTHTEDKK
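Buffer: 100 mM Tris/HCl pH8, 100 mM KCl, 0.05% low protease BSA, 2.5% glycerol, 0.01% Tween-20. ClpP 10 microg/mL final; 20 min RT; delta FRET normalized to ADEP and DMSO controls.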
gsp antagonist: gsp mutant antagonism | gsp-mutant cells, cAMP HTRF, 30 min; control for the full effect not named in the record | Potency, µM (series often up to 76.9 µM), for inactives: at the top dose activity change, negative = inhibition, usual class: inhibitors | 0.4% of 340,000 active; active = falling curve of any shape with a large fitted effect; inconclusive = falling curve, mostly with a smaller effect; inactive = flat or rising curve; cell line not stated here;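 note: intracellular cAMP measured with PDE inhibitor Ro 20-1724 present during compound exposure; potency is the fitted concentration of half-maximal effect; % is set by controls: 0 for no effect and ±100 for the full control effect; nearly all actives have a fitted effect of over 65% in size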
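HTRF cAMP read-out (cAMP-d2 plus anti-cAMP antibody-K in lysis buffer, 30 min RT). Before lysis, cells are exposed to compounds with […] for 30 min at 37C in DPBS containing Ca/Mg, BSA and Tween 20.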
Menin MLL FP FL: menin-MLL binding inhibition, fluorescein peptide; Fluorescence polarization, fluorescein-MLL peptide displacement from menin; FP activity change, % at 61.4 µM; 290,000 tested, under 10 active; AID 1766; inconclusive = falling polarisation curve, or a change in total fluorescence; inactive = total fluorescence flat and polarisation flat or rising; no compound was filed as active; the % refers to the polarisation; negative = inhibition;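 note: % of control where 0% means no effect; inhibitors lower the polarisation; unlabelled MLL peptide was the positive control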
The depositor's hits bear a star; ? = inconclusive; · = no result given; [ ] = another dose, or the depositor's remark.

SMILES | TRPML1 inh | gsp ag | TRPML1 ag | ClpP mod | gsp antagonist | Menin MLL FP FL
CCOc1ccc(CCNC(=O)c2cc3sc(CC)cc3n2C)cc1OCC | 0 | · | 2.1 | -7.5% | · | ·
COc1ccccc1CCC(=O)N1CCN(S(=O)(=O)c2cc(C(F)(F)F)ccc2Cl)CC1 | 5 | 17% | -1.3 | 0.3% | -13% | ·
Cc1cc(N2CCOCC2)ccc1/C=C1\NC(=O)N(CC(=O)Nc2ccccc2C)C1=O | 2 | 0%[15.4 µM] | 0.3 | -1.9% | 0% | -0.5
COc1ccccc1CNC(=O)C(NS(=O)(=O)c1cccs1)C(C)C (stereo unspecified) | 1 | · | -1.0 | 1.2% | · | ·
CCOC(=O)N1CCC(NC(=O)c2cc3c(-c4ccc(Cl)cc4)nn(C)c3s2)CC1 | -13 | -37%[inhibitor] | -0.1 | ? | 12% | 2.3
COc1ccc(C2C=C(c3ccccc3)Nc3nc(NC(=O)/C=C/c4ccc(F)cc4)nn32)cc1 (stereo unspecified) | 15 | · | 0.1 | 4.4% | · | ·
CCOc1ccc(-c2nc(-c3ccccc3)no2)cc1OCC | -19 | -14% | -0.3 | ? | -10% | -2.0
O=C(NCc1ccc(N2CCCC2=O)cc1)c1cn(CCc2ccccc2)nn1 | 21 | -5% | 1.1 | -0.7% | 12% | 3.9
COc1ccc(-c2noc(CCC(=O)NCC3CCCO3)n2)cc1OC (stereo unspecified) | 6 | 10% | -0.5 | -0.2% | 13% | -1.0
CCCCCCCC1(C)NC(=O)NC1=O (stereo unspecified) | -3 | 28%[15.4 µM] | 0.5 | · | 4% | 0.0
CC(C)(C)OC(=O)C[C@@H]1C/C=C\C[C@@H](CC(=O)N[C@H](CO)Cc2ccccc2)C(=O)NC[C@@H](c2ccccc2)OC1=O | -11 | · | -0.7 | 3.2% | -8% | ·
Cc1ccc(CNC(=O)c2ccc(NS(=O)(=O)c3c(C)noc3C)cc2)cc1 | 10 | -1%[15.4 µM] | 0.1 | 1.1% | -6% | 7.3
CCN(CC)C(=O)Cn1c(=O)n(CCCC(=O)NCc2ccccc2)c(=O)c2sccc21 | -7 | -4% | -0.5 | 0.1% | -2% | -1.0
COc1ccc(/C=N/N2CCOCC2)cc1COc1ccc(Cl)cc1 | -16 | -13% | -0.3 | -3.4% | 0% | 1.7
CC(c1cccs1)N(C(=O)Nc1ccccc1)C1CCCCC1 (stereo unspecified) | -9 | -4% | 0.6 | -0.3% | 4% | 1.2
O=C(NCCN1CCN(c2ccccc2F)CC1)c1cccn2c(=O)c3ccccc3nc12 | 2 | 23% | 1.2 | -3.3% | -1% | 4.9
Cc1ccc2c(c1)c1c(c(=O)n(-c3ccccc3C)c(=O)n1Cc1ccccc1F)n2C | -10 | · | -0.2 | 4.1% | · | ·
O=C(Nc1ccc(NC(=S)NC(=O)c2cccs2)cc1)c1ccco1 | 35 | -2% | 0.3 | -0.2% | 2% | 2.7
Cc1ccc(NC(=O)CCCN2C(=O)C(c3ccccc3)Oc3cccnc32)c(C)c1 (stereo unspecified) | -8 | -9% | -0.2 | 0.8% | · | ·
O=C(CCl)c1ccc2c(c1)CCN2C(=O)C1CCCCC1 | -4 | ? | 5.9 | ? | -1% | -3.0
O=C(CN1CCCCC1)Nc1ccc(S(=O)(=O)N2CCOCC2)cc1 | -10 | -16% | 0.4 | -0.6% | 8% | 4.1
CCC(=O)Nc1ccc(S(=O)(=O)NCCc2ccccc2)cc1 | -11 | 9% | 0.5 | 0.7% | -5% | -4.4
Cn1cc([N+](=O)[O-])c(C(=O)Nc2ccc(-c3nc4ccccc4o3)cc2)n1 | 2 | 3% | 0.1 | -2.9% | -1% | 2.2
CCNc1nc(NC(C)C)nc(N(n2cnnc2)S(=O)(=O)c2ccc(C)cc2)n1 | -13 | -25% | 2.2 | 0.7% | -16% | 2.8
O=C1c2ccccc2NC(c2ccco2)N1/N=C/c1ccco1 (stereo unspecified) | -8 | ? | 0.6 | · | 4% | 0.2
CC(=O)Nc1ccc2nc(SCC(=O)N3CCOCC3)sc2c1 | -11 | 19%[15.4 µM] | 0.4 | · | -4% | 4.1
O=C(c1ccccc1F)N1CCN(c2ccccc2F)CC1 | -18 | -11% | -0.5 | -3.7% | 2% | 2.1
Cc1ccccc1-n1c(O)c(/C=N/N2CCCCC2c2cccnc2)c(=O)[nH]c1=O (stereo unspecified) | -15 | -37%[inhibitor] | 2.8 | -2.3% | -3% | ·
Cc1cc(C)cc(NC(=S)N2CCC(NC(=O)c3ccccc3C)CC2)c1 | -2 | -12% | 0.9 | · | 9% | -5.0
COc1ccc(-c2cc(C(=O)Nc3cc(C)on3)no2)cc1OC | 41 | -37%[inhibitor] | 0.4 | 3.7% | 16% | -1.7
CSCC[C@H](NC(=O)OC(C)(C)C)C(=O)N/N=C/c1ccc2nccnc2c1 | -4 | 0%[15.4 µM] | 0.0 | 0.7% | -2% | -1.0
Cc1cc(C)cc(OCCCn2ccnc2)c1 | -6 | 14% | 0.0 | 0.5% | -12% | -3.3
CS(=O)(=O)N1CCCC(C(=O)Nc2ccccc2C(F)(F)F)C1 (stereo unspecified) | -4 | -16%[15.4 µM] | 0.1 | -3.9% | 5% | -2.7
S=C(Nc1cccc2ccccc12)NN1CCCCCC1 | 15 | -8%[15.4 µM] | -0.6 | -2.0% | 12% | ·
C=CCn1c(SCC(=O)NC(=O)Cc2ccccc2)nc2ccccc2c1=O | -6 | -64%[inhibitor] | 0.8 | 4.0% | 7% | ·
O=C1COc2ccc(C(=O)COC(=O)c3ccc(F)cc3Cl)cc2N1 | 3 | 30% | -0.1 | · | 11% | ·
Cc1ccc(C(=O)NNC(=O)CSc2nnc3c(n2)[nH]c2ccc(C)cc23)cc1 | -6 | -1% | -0.3 | -2.0% | 7% | ?
COc1ccc(CN2CCN(C(=O)c3ccc(CNS(=O)(=O)c4ccc(C)cc4)cc3)CC2)c(OC)c1OC | 6 | 0% | 0.6 | -2.4% | 5% | ·
Cc1ccc(S(=O)(=O)CCc2nc3ccccc3s2)cc1 | -3 | -32% | 0.5 | -19% | 2% | 8.1
O=C(CCC1CCCCC1)Nc1cc(C(F)(F)F)ccc1N1CCOCC1 | 24 | -21% | -0.2 | -6.1% | 7% | ·

Gathered by group, the entries above with an NH in an aromatic ring (2)
SMILES | TRPML1 inh | gsp ag | TRPML1 ag | ClpP mod | gsp antagonist | Menin MLL FP FL
Cc1ccccc1-n1c(O)c(/C=N/N2CCCCC2c2cccnc2)c(=O)[nH]c1=O (stereo unspecified) | -15 | -37%[inhibitor] | 2.8 | -2.3% | -3% | ·
Cc1ccc(C(=O)NNC(=O)CSc2nnc3c(n2)[nH]c2ccc(C)cc23)cc1 | -6 | -1% | -0.3 | -2.0% | 7% | ?

(list continues)
SMILES | TRPML1 inh | gsp ag | TRPML1 ag | ClpP mod | gsp antagonist | Menin MLL FP FL
CCOC(=O)c1sc(NC(=O)c2ccc3ncsc3c2)nc1C | 3 | 11% | 0.4 | -0.4% | -2% | -0.6
CC(=O)Nc1c(NC(C)C)c2ccccc2oc1=O | -1 | -26% | 1.8 | -2.8% | 7% | -2.5
O=C(NC(c1cccnc1)C(F)(F)F)c1cc(COc2ccc3c(c2)CCCC3)on1 (stereo unspecified) | -8 | 17% | -0.2 | -0.9% | ? | ·
CCOc1ccc(/C(O)=C2\C(=O)C(=O)N(c3cc(C)on3)C2c2ccccc2OC)cc1 (stereo unspecified) | -6 | ? | 1.8 | -0.7% | -5% | -2.3
COC(=O)c1ccccc1S(=O)(=O)N(Cc1cc2ccc(OC)cc2[nH]c1=O)CC1CCCO1 (stereo unspecified) | -10 | ? | 0.2 | 28µM* | -7% | -1.3
CCOc1ccccc1NC(=O)NNC(=O)COc1cccc(C)c1C | -7 | 12%[15.4 µM] | -0.9 | 1.9% | 5% | -0.5
O=C(NCc1ccccc1)C(=O)NCC1OCCN1S(=O)(=O)c1ccc2c(c1)OCCO2 (stereo unspecified) | -6 | 25% | -0.4 | 0.7% | -1% | -0.2
CC(C)(C)CN1CCNC(=O)C1CC(=O)N1CCC(C(=O)N2CCOCC2)CC1 (stereo unspecified) | 0 | -13%[15.4 µM] | -0.6 | · | 20% | -6.1
CN1CCc2c(sc(N)c2C(=O)O)C1 | 81 | -3%[15.4 µM] | 1.9 | · | 3% | -22
CN(C)CC/C=C1\c2cc(F)ccc2CSc2ccccc21 | 20 | ? | 3.1 | 0.5% | 11% | -0.5
O=P(Cc1ccccn1)(c1ccccc1)c1ccccc1 | 1 | ? | 0.5 | -0.8% | 7% | 1.8
COc1ccc(NC(=O)CNC(=O)C2CCCCC2)cc1 | 28 | 3% | -0.1 | -1.5% | 3% | 0.8
O=C(CC12CC3CC(CC(C3)C1)C2)N/N=C\c1ccc[nH]1 | 68 | -4%[15.4 µM] | 1.9 | · | 13% | -4.9
COc1ccccc1CNC(=O)[C@@H]1CCCN1S(=O)(=O)c1ccccc1F | -3 | 8%[15.4 µM] | 0.0 | · | 2% | 3.6
Cc1sc(NC(=S)Nc2ccc(F)cc2)c(C(N)=O)c1C | 7 | 10%[15.4 µM] | 1.4 | · | -5% | -0.1
Clc1cccc2c1CCN(Cc1nc(-c3cnccn3)no1)C2 | -11 | -4%[15.4 µM] | -1.2 | · | 14% | -4.0
C/C(=N\NC(=O)c1ccc(OC2CCCC2)cc1)c1ccc(O)cc1 | 8 | -12%[15.4 µM] | 1.4 | -3.5% | -16% | ·
Cc1ccc(C)c(C(=O)COC(=O)CN2C(=O)C3C4C=CC(C4)C3C2=O)c1 (stereo unspecified) | -14 | ? | 1.5 | -0.6% | 4% | -0.1
Cc1nn(-c2ccccc2)c(C)c1CCC(=O)O | -1 | -34%[inhibitor] | -0.4 | 0.2% | -3% | 0.7
COc1cc(C(=O)OCC(=O)NC2CCCC2)cc(OC)c1OC | 9 | -5% | 0.5 | · | 12% | -4.1

Arranged by value in gsp ag (smallest number first): some entries from above.
mol	TRPML1 inh	gsp ag	gsp antagonist	Menin MLL FP FL
CC(=O)Nc1c(NC(C)C)c2ccccc2oc1=O	-1	-26%	7%	-2.5
COc1cc(C(=O)OCC(=O)NC2CCCC2)cc(OC)c1OC	9	-5%	12%	-4.1
O=C(NC(c1cccnc1)C(F)(F)F)c1cc(COc2ccc3c(c2)CCCC3)on1 (stereo unspecified)	-8	17%	?	·
O=C(NCc1ccccc1)C(=O)NCC1OCCN1S(=O)(=O)c1ccc2c(c1)OCCO2 (stereo unspecified)	-6	25%	-1%	-0.2
